# Screening results from PubChem BioAssay.
# Vif TR-FRET: inhibitors of Vif binding to APOBEC3G peptide, primary screen, biochemical, TR-FRET, GST-Vif 1-94, biotin-A3G peptide, dose response retest (AID 1117319) | TR-FRET GST-Vif / biotin-A3G peptide binding; higher % means a stronger effect; test concentration not given here; strong numbers were not always called active | one-dose inhibition, %; IC50 in µM for titrated hits | 0.57% of 260,000 active;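 active means above the screen mean plus three standard deviations and confirmed in dose response; inconclusive means results disagree or hit not tested in dose response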;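 further: Vif residues 1-94 fused to GST binding biotinylated APOBEC3G peptide 110-148; 0% = full assay without inhibitor and 100% = GST in place of GST-Vif; retest series ran down from 100 µM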
# LANA-H2B inh: blocks KSHV LANA binding to histone H2A/H2B. 0.6% of 320,000 active. inhibition, % (no concentration beside the values). AID 2629. cell-free LANA-H2A/H2B peptide, fluorescence polarization. Q9QR71; in the data active means inhibition mostly above about 10%, no sharp cut-off; inactive means mostly below about 6.7%;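 further: stock transfer was 7.5 nL into about 10 µL; 0% = median of vehicle wells and 100% = median of positive control wells; one replicate is shown; the record names a cut of 25% in any replicate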
# Target sequence (Q9QR71 whole entry, looked up): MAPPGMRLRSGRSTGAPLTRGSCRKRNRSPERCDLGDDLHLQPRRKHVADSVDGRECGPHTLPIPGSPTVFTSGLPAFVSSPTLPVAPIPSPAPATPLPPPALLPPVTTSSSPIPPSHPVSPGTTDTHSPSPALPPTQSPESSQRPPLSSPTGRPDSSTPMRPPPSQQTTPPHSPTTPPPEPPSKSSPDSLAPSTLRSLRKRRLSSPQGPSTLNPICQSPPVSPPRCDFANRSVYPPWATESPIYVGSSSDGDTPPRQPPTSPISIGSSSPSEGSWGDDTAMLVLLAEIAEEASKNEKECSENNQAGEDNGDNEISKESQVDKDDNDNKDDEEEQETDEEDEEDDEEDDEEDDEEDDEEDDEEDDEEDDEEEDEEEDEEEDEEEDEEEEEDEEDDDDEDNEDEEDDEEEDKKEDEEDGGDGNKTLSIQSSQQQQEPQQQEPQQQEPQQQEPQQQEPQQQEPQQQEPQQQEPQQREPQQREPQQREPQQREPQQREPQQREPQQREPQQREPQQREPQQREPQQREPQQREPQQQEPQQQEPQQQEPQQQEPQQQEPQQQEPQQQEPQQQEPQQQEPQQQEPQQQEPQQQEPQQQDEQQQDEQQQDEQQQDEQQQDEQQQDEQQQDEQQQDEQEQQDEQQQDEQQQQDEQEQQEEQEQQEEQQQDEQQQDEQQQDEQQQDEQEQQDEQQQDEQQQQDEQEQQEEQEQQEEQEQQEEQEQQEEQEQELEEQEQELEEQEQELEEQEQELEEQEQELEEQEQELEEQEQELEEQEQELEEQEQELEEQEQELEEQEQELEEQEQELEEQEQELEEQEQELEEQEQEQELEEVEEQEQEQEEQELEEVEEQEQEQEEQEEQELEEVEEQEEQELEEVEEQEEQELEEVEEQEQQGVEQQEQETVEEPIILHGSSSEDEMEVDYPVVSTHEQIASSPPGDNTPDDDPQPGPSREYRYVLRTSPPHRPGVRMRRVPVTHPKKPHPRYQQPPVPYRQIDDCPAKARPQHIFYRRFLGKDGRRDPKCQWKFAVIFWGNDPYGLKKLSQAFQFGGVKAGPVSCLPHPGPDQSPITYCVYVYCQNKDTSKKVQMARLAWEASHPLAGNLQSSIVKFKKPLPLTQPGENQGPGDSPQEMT
# Calb FLC: C. albicans growth modulation with fluconazole. growth inhibition, % (test concentration not listed). C. albicans CaCi-2 (fluconazole-resistant clinical isolate) + fluconazole, Alamar Blue growth, 48 h. AID 1979. 0.57% of 300,000 active;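 active means most replicates above 75%; inconclusive means exactly half above 75%; inactive means most below 75%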;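 further: all wells also contain fluconazole at 8 µg/ml as a sub-toxic cotreatment; 0% = median of DMSO wells and 100% = median of geldanamycin control wells; wells of about 8 µL received 7.5 nL stock; the first replicate is given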
# A1 inh: inhibitors of the anti-apoptotic protein A1, read as caspase activation | 0.066% of 330,000 active | caspase activation, % (concentration not given with the values) | MEF A1-2A-BIM cells, Caspase-Glo 3/7 luminescence, 3 h; percent of clofoctol response, vehicle zero;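 active means over half of replicate activation scores above 10%, or exactly half above 10 with the replicate mean above 10; inconclusive means replicate mean below 10 yet half the replicates above 10; inactive means over half of replicates below 10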;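 further: wells of about 30 µL received 50 nL stock; many hits fall short of the cut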
# T cruzi repl: T. cruzi replication inhibition | inhibition, % (test concentration not listed) | 1.4% of 300,000 active | T. cruzi beta-gal in NIH3T3, luminescence, 90 h;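 active means mean inhibition across valid replicates above about 55%, limit read from the data; inconclusive means mean below that limit but half or more replicates reach it; inactive means mean below it, under half of replicates reach it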;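 further: signal also drops with host cell toxicity which is not excluded here; 0% = plate median of DMSO wells and 100% = zero luminescence signal; higher percent means less beta-gal luminescence so fewer parasites; stock transfer was 50 nL into about 50 µL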
# Beta cell apopt: beta cell apoptosis inhibition; INS-1E cytokine-induced death, ATP luminescence, 48 h; percent of positive-control rescue, neutral wells zero; protection from apoptosis, % (concentration not given with the values); 0.8% of 300,000 active; AID 435005;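 active means all replicates at 75% or more, or half of them and the mean; inconclusive means half reach 75% but not the mean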;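 further: 0% = cytokine-treated negative control wells and 100% = positive control rescue; higher means more ATP so stronger rescue from cytokine killing; wells of about 40 µL received 100 nL stock; the first replicate is given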
# RanGTP-Impb inh: disruptors of Ran-importin-beta complex formation – biochemical, FRET, CFP-Ran, YFP-importin-beta, homogeneous, primary screen. 1.1% of 300,000 active. AID 2216. inhibition, % (test concentration not listed). cell-free CFP-Ran/YFP-importin-beta FRET ratio;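 active means most replicates above 15%; inconclusive means exactly half above 15%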;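 further: 0% = DMSO wells and 100% = Ran loaded with GDP instead of GTP; wells of about 40 µL received 100 nL stock; the first replicate is given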
# MLL AF4-AF9 inh: inhibitors of human MLL-AF4/AF9 interaction; AlphaScreen, biotin-AF4 peptide binding to FLAG-AF9; P42568; AID 651704; inhibition, % at 10 µM; 0.47% of 350,000 active;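 active means every replicate reaching a set inhibition limit, whatever the replicate mean, cut at about 25% in these data; inconclusive means mean inhibition reaches that limit but some replicates miss it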;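 further: 0% = plate neutral control median and 100% = total signal loss; the record names both 10 and 1 µM as test concentration; the first replicate is given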
# An asterisk follows results filed as active; ? = inconclusive; · = no result given.
entry	molecule	Vif TR-FRET	LANA-H2B inh	Calb FLC	A1 inh	T cruzi repl	Beta cell apopt	RanGTP-Impb inh	MLL AF4-AF9 inh
1	CCCOC(=O)c1c(NC(=O)C2CCCO2)sc(C(=O)OC)c1C (stereo not given)	5%	·	22	0.2	28	-5	-0.9	11
2	Cc1ccc(-c2nn(-c3ccccc3)cc2C2CC(c3ccccc3)=NN2C(=O)CCC(=O)O)cc1 (stereo not given)	2%	0.2	25	0.8	0	-6	8.9	-8.9
3	Cn1nnc(NC(=S)NC(=O)c2ccc(-c3ccc(Br)cc3)o2)n1	-5%	0.9	-11	-0.7	24	2	-2.1	-17
4	CCN(CC)CCNC(=O)c1ccc(NC(=O)COc2ccc3c(c2)CCC3)cc1	-10%	6.6	·	0.5	·	-2	·	4.9
5	CC(=C/c1ccccc1)/C=N/NC(=O)c1ccc2nc[nH]c2c1	7%	-4.4	0	-1.0	-35	8	4.1	·
6	CCC(=O)Nc1ccc(C(=O)OCC(=O)c2cccs2)cc1	·	-1.8	4	-1.1	-1	-1	1.1	-6.5
7	CC(OC(=O)CCC1CCCC1)C(=O)Nc1ccccc1[N+](=O)[O-] (stereo not given)	0%	0.0	-5	-0.5	-5	·	-5.3	6.9
8	O=C1C2C3C=CC(CC3)C2C(=O)N1c1ccccc1[N+](=O)[O-] (stereo not given)	·	1.0	-5	-7.1	-1	4	-0.2	-0.7
9	CCOC(=O)c1ccc(-c2c(-c3ccccc3OC)sc3ccc(OC)cc23)cc1F	·	-1.8	·	0.6	·	-1	·	2.8
10	O=C(CN1CCOCC1)Nc1ccc(Cl)cn1	3%	4.2	-1	-0.1	2	-4	-1.2	0.2
11	CCOC(=O)c1cc(C#N)c(SC(C)C(=O)NC2CCCCC2)nc1C (stereo not given)	-24%	7.7	·	-0.3	·	5	·	-2.4
12	CCOC(=O)c1oc2ccc(S(=O)(=O)N3CCOCC3)cc2c1C	7%	1.7	20	1.4	-13	-3	-0.5	4.8
13	CC1CC(C)CN(C(=O)CSc2nnc(-c3ccc(F)cc3)o2)C1 (stereo not given)	6%	9.6	1	-0.2	6	-4	?	1.9
14	O=C(CNS(=O)(=O)c1c(Cl)cccc1Cl)OCC(=O)c1ccc[nH]1	·	-4.3	3	0.4	10	-15	-1.3	0.0
15	Cc1cccc(NC(=O)c2cc(=O)[nH]c3ccccc23)c1	·	2.3	0	-0.8	-8	15	4.6	-1.5
16	O=C(NCc1ccc2c(c1)OCO2)C1CC(=O)N(C2CCCCCC2)C1 (stereo not given)	9%	2.9	-12	1.4	-6	0	0.7	-35
17	CCOC(=O)N1CCC(N2CCCC(CO)(Cc3cccc(Cl)c3)C2)CC1 (stereo not given)	-4%	-3.3	-2	0.4	32	-1	-3.0	3.0
18	Cc1noc(C)c1COc1ccccc1C(=O)N(C)CC(=O)Nc1ccc(F)cc1	2%	-3.8	-4	-0.5	-4	9	5.1	-28
19	CCCC(=O)Nc1sc(C)c(C)c1C#N	·	3.7	3	0.0	-3	-6	-4.5	-1.8
20	COc1cc([C@H]2Oc3c(OC)cc(CCCO[C@@H]4O[C@H](CO)[C@@H](O)[C@H](O)[C@H]4O)cc3[C@@H]2CO)ccc1O	·	-2.6	·	-0.3	·	-4	·	-1.8
21	O=C(OCc1cccc(Cl)c1)c1cc(S(=O)(=O)N2CCCCC2)ccc1N1CCOCC1	·	0.9	4	-0.1	10	30	-0.6	-0.6
22	O=C(O)C1Cc2ccccc2CN1C(=O)c1ccco1 (stereo not given)	·	-1.7	-9	0.1	-14	-3	3.0	-4.0
23	Cc1c(C(=O)c2ccc(Cl)cc2Cl)cnc2cc3c(cc12)OCO3	20%	-0.1	26	1.1	14	0	1.6	·
24	Cc1ccccc1C(=O)N1CCN(c2ncccn2)CC1	-2%	6.7	6	-0.5	-4	-5	1.1	-0.4
25	CCOc1ccc(N2C(=O)CN(O)C=C3N=c4ccccc4=C32)cc1	·	0.5	3	0.1	-2	3	-3.6	·
26	C=CCNC(=S)NCc1ccccc1OC	13%	-5.1	-15	-1.1	37	-5	4.0	-0.6
27	O=C1CNc2ccc(C(=O)N3CCN(c4ccccn4)CC3)cc2N1	·	-2.8	15	1.3	-10	0	-4.9	1.9
28	CN(Cc1cccs1)C(=O)c1cccc(S(=O)(=O)N2CCCCCC2)c1	6%	0.9	·	-0.8	·	-9	·	2.4
29	CCn1c(=O)c2cc(C(=O)Nc3ccccc3OC)sc2c2ccccc21	-4%	5.7	0	1.0	31	5	2.1	4.4
30	CCC(=O)Nc1cccc(C2=NOC3(C2)C[C@@H](C(N)=O)N(C(=O)c2cc([N+](=O)[O-])cc([N+](=O)[O-])c2)C3)c1 (stereo not given in full)	9%	4.2	-2	0.9	-14	-2	6.2	2.7
31	CCN(CC)S(=O)(=O)c1cc(NC(=O)CNc2cccc(S(=O)(=O)N3CCOCC3)c2)ccc1C	-2%	-0.2	6	-0.3	-6	34	2.4	2.4
32	O=C(COc1ccccc1[N+](=O)[O-])N/N=C/c1ccc(O)cc1	?	·	-8	-0.2	-1	-1	-1.1	·
33	COc1ccccc1-n1nnnc1SCC(=O)N(CC(C)C)C1CCS(=O)(=O)C1 (stereo not given)	·	3.6	-6	1.3	-6	-3	-3.4	1.7
34	CC(=O)c1c(C)[nH]c(C(=O)N2CCCCCC2)c1C	-1%	1.2	-2	-1.1	-12	-8	2.1	·
35	O=C(c1ccc2c(c1)OCCCO2)c1cccs1	1%	-0.8	-8	-3.4	3	-10	-0.5	·
36	Cc1ccc(/S(C)=N/S(=O)(=O)c2ccc(C)cc2)cc1 (stereo not given)	1%	1.6	-8	0.0	-2	0	2.4	·
37	O=C(NCc1ccco1)Nc1ccc2snnc2c1	16%	-3.1	2	-1.3	-9	-5	4.8	·
38	COC(=O)C1=C(C)N(CCc2ccc(OC)cc2)C(=O)C1	?	-4.5	-2	-0.2	-18	·	?	·
39	NC(=O)CSc1nnc(-c2cccs2)n1Cc1ccco1	?	1.7	-3	-0.4	1	-6	1.0	-7.5
40	CC(C)CCNC(=O)c1cnn2c(C(F)(F)F)cc(-c3ccco3)nc12	?	6.8	11	-0.2	33	21	7.6	·
41	CC(/C=C/c1ccco1)=N\NC(=O)C(O)c1ccccc1 (stereo not given)	4%	1.6	1	-0.7	-8	-15	0.6	-6.1
42	COc1ccc2oc(C(=O)NCC(Cc3ccccc3)N(C)C)c(C)c2c1 (stereo not given)	4%	-0.3	36	0.0	9	-5	3.6	3.0
43	O=C(NC(=S)N1CCN(Cc2ccc3c(c2)OCO3)CC1)c1cccc(Br)c1	-7%	8.7	-51	0.2	-3	18	-1.7	4.8
44	N/C(=N\OC(=O)c1cc([N+](=O)[O-])ccc1Cl)c1cccnc1	-11%	2.3	4	-0.3	-1	5	-0.1	-7.0
45	CCN1CCN(C(=S)c2ccc(-c3ccccc3)cc2)CC1	-5%	2.6	1	-0.3	18	-5	-2.7	-2.7
46	CC1CN(C(=O)c2cc(-c3ccc(Cl)s3)nc3ccccc23)CC(C)O1 (stereo not given)	-16%	-9.6	13	0.2	13	0	9.9	-2.8
47	CC1CCC(NC(=O)C2CC(O)CN2S(=O)(=O)c2ccc([N+](=O)[O-])cc2)CC1 (stereo not given)	·	2.0	·	1.1	·	1	·	-4.1
48	CC(C)C(C)(C#N)NC(=O)CSc1nc(C2CCCCC2)n(-c2ccccc2)n1 (stereo not given)	7%	-3.1	-7	1.6	10	-4	?	·
49	Cc1cc(O)ccc1NS(=O)(=O)c1ccc2c3c(cccc13)C(=O)N2	·	1.2	12	-0.2	-7	-6	-4.1	3.5
50	O=C(/C=C/c1ccc(Br)cc1)NCc1cccs1	-8%	-5.1	-8	-1.3	-3	-4	-2.4	-54
51	CN1CCN(C(=O)c2sc(=S)n(-c3ccccc3)c2N)CC1	-9%	5.1	20	-1.0	-15	-9	0.5	·
52	CCOC(=O)C1CCN(C(=S)Nc2ccccc2)CC1	26%	4.8	-4	0.4	-11	-5	9.1	-3.8
53	CSc1nc2ccc(NC(=O)c3ccc(=O)n(C)n3)cc2s1	-8%	0.6	-13	-7.5	11	4	0.6	-15
54	Cc1oc(C(C)(C)C)cc1C(N)=O	·	1.0	-2	0.1	-6	-11	0.2	-3.0
55	CC1(c2ccc(Cl)cc2)NC(=O)N(CC(=O)Nc2cccnc2Cl)C1=O (stereo not given)	6%	0.6	·	0.0	-1	-7	4.8	0.7
56	COc1ccc(-n2cc(CNCCCn3ccnc3)c(-c3ccccc3Cl)n2)cc1	·	-0.8	5	-0.3	18	3	0.8	18
57	C=CCNC(=O)CN1CCC(NC(=O)c2ccco2)CC1	0%	-3.9	-5	0.6	-12	-7	3.5	1.0
58	O=C1c2ccccc2C(=O)N1CCc1nc(-c2cccnc2)no1	-2%	6.4	9	-0.8	-4	-5	-5.0	·
59	CCc1nnc(NC(=O)c2ccc(OCc3c(C)noc3C)c(OC)c2)s1	4%	9.6	10	-1.0	2	1	0.9	-0.9
60	C[C@@H](NC(=O)Cn1ccc(NC(=O)OCc2ccccc2)nc1=O)c1cccc2ccccc12	·	-4.1	·	-0.5	·	5	·	-6.2

# Remaining list, next part
entry	molecule	Vif TR-FRET	LANA-H2B inh	Calb FLC	A1 inh	T cruzi repl	Beta cell apopt	RanGTP-Impb inh	MLL AF4-AF9 inh
61	Nc1ccc(Oc2c(Cl)cccc2Cl)nc1	-1%	-0.8	-33	-0.2	18	-5	3.6	-1.8
62	Cc1cc(Br)ccc1OCCNCc1ccccc1	·	3.0	-44	-0.6	12	0	0.0	1.2
63	COc1ccc(-n2ccnc(SCC(=O)NCc3ccccc3Cl)c2=O)cc1	·	-0.9	?	0.1	-22	-8	2.2	-0.5
64	S=C(Nc1ccccc1)N1CCc2ccccc21	-2%	3.2	0	-1.3	-20	·	3.8	0.9
65	COc1ccc2[nH]c(=O)c(C(=O)O)cc2c1	?	-1.7	2	1.1	-2	-9	-2.8	-0.2
66	CCOc1cc(S(=O)(=O)n2ccnc2)ccc1Cl	·	-0.4	-11	-0.1	-9	-1	0.5	-3.6
67	Cc1c(C(=O)Cc2ccccc2)n(C)c2ccccc12	15%	·	-10	-0.5	7	-5	4.2	7.8
68	CC(=O)c1ccc(N(C)C)cc1	2%	0.2	1	0.6	-17	0	-1.3	·
69	CCOc1ccc(CCNC(=O)C2CCN(C(=O)N(C)C)CC2)cc1OCC	1%	-1.8	3	-0.7	-2	-6	0.6	·

# Grouped by structure, the entries above with a cyano group
entry	molecule	Vif TR-FRET	LANA-H2B inh	Calb FLC	A1 inh	T cruzi repl	Beta cell apopt	RanGTP-Impb inh	MLL AF4-AF9 inh
11	CCOC(=O)c1cc(C#N)c(SC(C)C(=O)NC2CCCCC2)nc1C (stereo not given)	-24%	7.7	·	-0.3	·	5	·	-2.4
19	CCCC(=O)Nc1sc(C)c(C)c1C#N	·	3.7	3	0.0	-3	-6	-4.5	-1.8
48	CC(C)C(C)(C#N)NC(=O)CSc1nc(C2CCCCC2)n(-c2ccccc2)n1 (stereo not given)	7%	-3.1	-7	1.6	10	-4	?	·
